Assay outcomes as filed in PubChem.
Ba CapD inh = inhibitors of Bacillus anthracis CapD enzyme; purified CapD enzyme, fluorescence intensity read-out; active compounds read low; some hits fall short of the stated cut; z-score (concentration not given with the values); hit rate 0.23% among 140,000;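 active means z-score under -4 in either of two replicates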;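 further: stock transfer was 100 nL into about 40 µL; score is relative to mean and spread of the plate; one replicate is shown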
AID504770 = growth inhibitors of E. coli YBA685 in a screen for V. cholerae RctB (chromosome II replication) inhibitors | z-score (concentration not given with the values) | AID 504770 | hit rate 0.27% among 130,000 | E. coli YBA685 rctB-dependent plasmid, OD600 growth, 3 h; active compounds read low;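 active means z-score under -2 on both plates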;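 further: wells of about 30 µL received 100 nL stock; score is relative to mean and SD of the test wells; the first replicate is given; strong numbers were not always called active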
Numbers without * were called inactive; · = not tested or not shown; & = joins results of further samples.

SMILES	Ba CapD inh	AID504770
Cc1nc2sccn2c(=O)c1S(=O)(=O)NCCCN1CCN(c2ccccc2)CC1	5.84	0.15
CCC(C)n1cnc2ccccc21 (centres undefined)	·	-0.95
CCc1ccc(NC(=O)CSC2=C(C#N)C(c3ccco3)C(C(=O)Nc3ccc(Cl)cc3)=C(C)N2)cc1 (centres undefined)	-0.145	·
CC(=O)c1cnc(N)nc1C	0.505	·
COc1cc(-c2nnc(COc3ncnc4c(Cl)cc(Cl)cc34)o2)cc(OC)c1OC	·	-0.75
CCC(=O)Nc1sc2c(c1C(N)=O)CCCC2	3.52	-0.4
N/C(=N\O)c1cccc(CS(=O)(=O)c2cccs2)c1	0.075	-1.25
O=C(OCCN1C(=O)c2cccc3c(N4CCOCC4)ccc(c23)C1=O)c1ccc(Br)cc1	0.555	·
CCOC(=O)C1=C(C)N=c2s/c(=C\c3cccs3)c(=O)n2C1c1ccc(OCC)c(OCC)c1 (centres undefined)	-0.08	·
CC(C)CCn1c2ccccc2c2ccccc21	10.1	0.65
Cc1cccc(-n2nc3c(c2NC(=O)/C=C\c2ccco2)CSC3)c1C	-4.94*	-0.25
NC(=O)c1ccccc1OCC(=O)N1N=C(c2cccs2)CC1c1cccs1 (centres undefined)	·	0.05
C=CS(=O)(=O)c1ccc(C)cc1	0.525	·
Cc1ccc(S(=O)(=O)N2CCN(c3cccc(Cl)c3)CC2)cc1[N+](=O)[O-]	0.015	·
O=C(CSc1nc2ccccc2n1-c1ccccc1)NC1CCCC1	-0.09	0.75
C=CCn1cnnc1SCC(=O)NCC(F)(F)F	·	0.8
CSc1ccc(Cl)c(C(=O)Nc2ccc3c(c2)N(C(C)=O)c2ccccc2CC3)c1	0.085	·
CCOC(=O)C1=C(C)NC2=C(C(=O)C(C(=O)OCC)C(c3cccc(OC)c3)C2)C1c1cccc(OC)c1OC (centres undefined)	11.4	·
CCc1ccccc1NC(=O)CN1CCC(NC(=O)NC2CCCCC2)CC1	·	-0.15
COc1ccc(C2Oc3ccc(Br)cc3C3CC(c4ccc(C)cc4)=NN32)cc1OC (centres undefined)	-0.33	·
O=P(CCNCc1cccnc1)(c1ccccc1)c1ccccc1	0.165	-0.6
Cc1occc1-c1nnc(SCc2nnc(-c3ccc(F)cc3)o2)n1C	·	0.05
O=C(OCC1CC1(Cl)Cl)N1CCN(c2ccc(C(F)(F)F)cn2)CC1 (centres undefined)	4.53	·
Cc1[nH]ccc(=O)c1OCC(N)=O	-1	2.9
C1=C(c2ccccc2)N2c3ccccc3NC2(c2ccccc2)CC1c1ccccc1 (centres undefined)	0.79	·

New compounds follow
SMILES	Ba CapD inh	AID504770
CCS(=O)(=O)CCSc1nc(-c2cccs2)cc(-c2ccccc2)c1C#N	1.91	·
O=[N+]([O-])c1ccc(N2CCN(c3ncnc4scc(-c5ccccc5)c34)CC2)cc1	-0.365	·
CCN(CC)c1nc(-c2ccc(OC)c(OC)c2)cc(C(F)(F)F)n1	30.5	-0.1
CO/N=C1\C(C)=C(C#N)C2C1C2(C)C (centres undefined)	0.605	-0.15
CCN(CC)S(=O)(=O)c1cccc(-c2nnc(SC(C)C)n2-c2ccccc2)c1	·	-0.2
Cc1sc(NC(=O)CN2CCCC2)c(C#N)c1C	-0.37	-0.5
CCCn1c(=C(C#N)C#N)s/c(=C2\C=Cc3ccccc3N2CC)c1=O	·	1.55
Cc1ccc(NC(=O)c2c(Cl)nc3sccn23)c(S(=O)(=O)N2CCCCC2)c1	·	0.8
CN(C(=O)CSc1nncc(=O)[nH]1)c1ccccc1	·	-0.35
CC(C)n1nccc1NS(=O)(=O)c1ccccc1	·	-0.6
CC(=O)N1C(=O)C(=C2C=C(C)OC(C)=C2)c2ccccc21	·	-0.2
COCCN1C(=O)c2oc3ccccc3c(=O)c2C1c1cccc(O)c1 (centres undefined)	-0.5&-0.77	0.95&-1.6
CC1(C)CC2CC(C)(CN2/C=C2/CCCCC2=O)C1 (centres undefined)	·	-1.35
O=C1CC(c2ccco2)C(n2cncn2)C(=O)C1C1NCCc2ccccc21 (centres undefined)	-0.485	·
O=C(CCn1c(=O)oc2ccccc21)Nc1ccc(Cl)cc1	·	0.25
CCOC(=O)c1cnc(SCC(=O)N(C)c2ccccc2)nc1N	-0.775	2.5
COC(=O)c1ccc(CN(C(C)=O)C(=O)Nc2ccc(C(=O)OC)cc2C)cc1	1.03	0.4
CN1CCc2c1nc1ccccc1c2N=C1CCCN1c1ccccc1	-0.53	-0.65
CC1CCCN(C(=O)CSc2nnc(-c3ccc(Cl)s3)o2)C1 (centres undefined)	0.265	0.45
CSc1nc2ncc(C(=O)c3ccccc3O)cc2c(=O)[nH]1	·	0.15
CN(c1ccccc1)S(=O)(=O)c1ccc(C(=O)Nc2nc3ccc([N+](=O)[O-])cc3s2)cc1	-0.71	·
S=c1[nH]nc(NCCc2ccccc2)s1	·	-0.7
Cc1cc(C)nc(Sc2ccc(NS(=O)(=O)c3ccccc3Cl)cc2)n1	0.065	·
c1snnc1C12CC3CC(CC(C3)C1)C2	-0.395	-0.45
CCCNC(=O)Nc1ccc(C(F)(F)F)cc1	-0.945	1.05

The results go on.
SMILES	Ba CapD inh	AID504770
O=c1c(Cc2c(F)cccc2Cl)c(O)ccn1CCc1ccccn1	0.07	·
CN(C)S(=O)(=O)c1ccc(N2CCC(CNC(=O)Nc3ccccc3)CC2)cc1	·	2.2
CCN(C(=O)CSc1ncc(-c2ccc(C)cc2)n1C)C1=CCCC1	·	-0.15
CCCc1[nH]n(-c2nc3ccccc3s2)c(=O)c1C(C)=NCCO	0.51	·
Cc1ccsc1CN(C)C(=O)c1cc(S(C)(=O)=O)ccc1Cl	·	-0.05
O=C(COc1ncnc2ccccc12)N(Cc1ccccc1)Cc1ccccc1	0.635	0.5
CC(C)CC(NC(=O)c1ccccc1COC(=O)c1ccccc1)C(=O)NNC(=O)OCc1ccccc1 (centres undefined)	0.25	·
O=C(NCCSc1ccc(Cl)cc1)Nc1ccccc1	10.5	-4.5*
Cc1ccc2nc(-c3ccc(C)o3)c(NC3CCCCC3)n2c1	6.25	2.45
O=C(NCc1cccnc1)c1ccc2nc(-c3ccco3)c(-c3ccco3)nc2c1	0.405	-0.4
Cc1ccc(-n2c(C)cc(=O)cc2C)cc1	·	0.15
O=C1CC2CS(=O)(=O)CC2N1c1ccccc1 (centres undefined)	-0.845	0.35
Cc1onc(-c2ccccc2)c1C(=O)N1CCCc2ccccc21	-0.705	-0.3
CCOP(=O)(OCC)C(=C1C=C(C(C)(C)C)C(=O)C(C(C)(C)C)=C1)P(=O)(OCC)OCC	-0.79	·
COc1ccc(-c2csc(C3=C(O)CN(C(C)C)C3=N)n2)cc1OC	·	0.85
CCOC(=O)c1oc2ccc(CC/C(C)=N/NC(=O)c3ccc(OC)c(OC)c3)cc2c1C	·	0.1
COC(=O)C1=C(C(=O)OC)SC(=C2C(=S)C(C)(C)N(C(=O)COc3ccc(Cl)cc3)c3ccc(OC)cc32)S1	0.33	·
O=C(/C=C/c1ccco1)OCC(=O)c1ccc(F)cc1	·	1.45
CC(C)N(Cc1c(O)ccc2c(=O)c(-c3ccccc3)coc12)C(C)C	43	-0.5
Cn1nnn(-c2ccccc2)c1=O	-0.985	-0.7
COCCNC(=O)c1ccccc1-c1ccccc1C(=O)O	0	-0.1
CCN(c1ccc(F)cc1)S(=O)(=O)c1ccc2[nH]cc(C(=O)N3CCN(Cc4ccccc4)CC3)c(=O)c2c1	2.86	·
COc1ccc(/C=C2/SC(=O)N(CCC(=O)Nc3cccc(C)c3)C2=O)cc1OC	-0.41	·
CCOc1ccc(NC(=O)CSc2nc3ccccc3c(=O)n2Cc2ccccc2OC)cc1	-0.255	-0.25
CCCc1cc(NC(C)c2ccccc2)n2c(nc3ccccc32)c1C#N (centres undefined)	6.8	2

The listing continues.
SMILES	Ba CapD inh	AID504770
Cc1cc(C2SCc3cc(C)c(C)cc3CS2)c(O)c([N+](=O)[O-])c1	-0.135	·
O=c1c2ccccc2nc2n1C(CSc1ccc(Br)cc1)CN2 (centres undefined)	0.21	·
CCCCc1nnc(NC(=O)Cn2cnc3ccccc3c2=O)s1	0.225	-0.05
CCCc1ccc(C(=O)O)s1	·	-0.2
Clc1ccc2[nH]c(-c3ccccc3)cc2c1	84.1	-0.1
Cc1cc(Nc2ccccc2)n(C(=O)c2ccc(N)cc2)n1	·	-0.8
CN(C)S(=O)(=O)c1ccc(-c2ccccn2)s1	-0.515	-0.65
CC(C)(C)c1ccc(C(=O)N2CCCCCC2=O)cc1	-0.26	-0.5
Cc1c(C(c2cc(Br)c(O)c(O)c2Br)c2c(C)n(C)n(-c3ccccc3)c2=O)c(=O)n(-c2ccccc2)n1C	-0.245	·
O=C(COC(=O)C1CCCCC1)c1cccc2ccccc12	0.1	-0.6
CCN(CC)C(=O)CSc1nc2c(cc1C#N)CCC2	0.205	-0.25
O=C(N/N=C/c1c(F)cccc1F)c1ccc(C(F)(F)F)cc1	0.48	·
Cn1cnnc1SCC(=O)Nc1ccc2nc(SCc3ccccc3F)sc2c1	-0.14	·
Cc1nccnc1-c1ccn[nH]1	-0.045	·
CNC(=O)CCC(=O)N1CC2CCCN2c2ccccc21 (centres undefined)	1.54	0.65
CCN(c1ccccc1)C1(O)C(=O)c2ccccc2C1=O	0.41	-0.15
CC1=N/C(=C2/C=C(c3ccc4c(c3)OCO4)Oc3ccccc32)C(=O)O1	0.4	1.5
Cc1onc(-c2c(Cl)cccc2Cl)c1NC(=O)NN(C)C	0.465	·
CN(/C=C1\CCCCC1=O)C1CCCCC1	·	0.05
COc1ccc(/C=C2\Oc3cc(OC(=O)c4ccc(F)cc4)ccc3C2=O)cc1	-0.105	-0.1
O=C(Nc1ccccc1)C(c1ccccc1)c1ccccc1	0.54	0.35
CCCCn1c(SCC)nc2sc3c(c2c1=O)CCCC3	5.53	0.45
C#CCn1c(Cc2ccccc2)nc2ccccc21	-0.185	1.35
N#C/C(=C\c1ccc(C(F)(F)F)cc1)c1cn(C(=O)C2CCC2)c2ccccc12	58.5	1.45
Cc1ccccc1N1CCN(S(=O)(=O)c2cccc3nonc23)CC1	-0.74	·

Remaining list, next part.
SMILES	Ba CapD inh	AID504770
CSc1nc2ccccc2n1C(=O)CCN1C(=O)/C(=C/c2cccs2)SC1=S	-0.08	1.8
CC1=C(C(=O)OC(C)C)C2(C(=O)N(C)c3ccccc32)C(C#N)=C(N)O1 (centres undefined)	-0.41	-0.35
CCC(C)NC(=O)CSc1nc(NCC2CCCO2)c2ccccc2n1 (centres undefined)	3.54	·
CCS(=O)(=O)c1ccc2oc(NCCc3ccc(F)cc3)nc2c1	·	0.15
CC(=O)NC1C(OCCOc2ccc(Cl)cc2C)OC(CO)C(O)C1O (centres undefined)	1.68	-0.2
Clc1ccc(Nc2nc(NCCN3CCOCC3)nc(N3CCCC3)n2)cc1	0.97	·
CN(C)/C=C1/C(=O)N(c2ccccc2)N=C1C(C)(C)C	-0.41	0.15
COc1ccc(C2=NN(C(C)=O)C(c3cc4cccc(C)c4nc3Cl)C2)cc1OC (centres undefined)	0.775	·
CCNC(=O)n1cc(-c2ccnc3ccccc23)c(-c2ccncc2)n1	-0.3	·
O=C(O)c1ccc(C(=O)O)c(F)c1	71.3	0.3
Cn1ccnc1SCC(=O)Nc1ccc2ccccc2c1	0.265	-0.25
O=C(O)CCCc1nc2ccccc2[nH]1	0.31	-0.75
COC(=O)c1sccc1Oc1ccc(C(F)(F)F)cc1[N+](=O)[O-]	-0.255	·
COC(=O)c1ccc2nc(-c3cccc(N)c3)cn2c1	-0.32	0
CCN(CC)C(=O)CN1C=NS(=O)(=O)c2ccccc21	-1.33	-0.8
Clc1ccc(-c2noc(CCCSc3nnnn3-c3ccccc3)n2)cc1	·	-0.8
O=C(NCCCn1ccnc1)Nc1ccc(Cl)cc1	-0.185	-0.75
COc1ccc(-c2ocnc2C(=O)NCC(C)c2ccccc2)cc1 (centres undefined)	25.1	0.7
O=C(CNCc1ccccn1)NCc1ccc(Cl)cc1	·	1.85
COC(=O)CC1=C(C(=O)OC)C2(C(=O)N1)C(C#N)=C(N)Oc1ccccc12 (centres undefined)	-0.415	0.45
COc1ccc(-c2[nH]ncc2CN(Cc2ccccc2)C(=O)/C=C/C(=O)O)cc1	·	0.3
Cc1c(C)n(CC(O)CN2CCN(Cc3ccccc3)CC2)c2ccccc12 (centres undefined)	-0.05	·
O=C1CCC(c2ccccc2)C(=O)C1C(=O)c1ccc(Cl)cc1Cl (centres undefined)	0.07	-1.65
CCOC(=O)c1c(C)n(-c2ccc(C)cc2)c2ccc(OCC(O)CNCC3CCCO3)cc12 (centres undefined)	-0.42	-0.05

In the list so far, these have fluorine:
SMILES	Ba CapD inh	AID504770
C=CCn1cnnc1SCC(=O)NCC(F)(F)F	·	0.8
Cc1occc1-c1nnc(SCc2nnc(-c3ccc(F)cc3)o2)n1C	·	0.05
O=C(OCC1CC1(Cl)Cl)N1CCN(c2ccc(C(F)(F)F)cn2)CC1 (centres undefined)	4.53	·
CCN(CC)c1nc(-c2ccc(OC)c(OC)c2)cc(C(F)(F)F)n1	30.5	-0.1
CCCNC(=O)Nc1ccc(C(F)(F)F)cc1	-0.945	1.05
O=c1c(Cc2c(F)cccc2Cl)c(O)ccn1CCc1ccccn1	0.07	·
O=C(/C=C/c1ccco1)OCC(=O)c1ccc(F)cc1	·	1.45
CCN(c1ccc(F)cc1)S(=O)(=O)c1ccc2[nH]cc(C(=O)N3CCN(Cc4ccccc4)CC3)c(=O)c2c1	2.86	·
O=C(N/N=C/c1c(F)cccc1F)c1ccc(C(F)(F)F)cc1	0.48	·
Cn1cnnc1SCC(=O)Nc1ccc2nc(SCc3ccccc3F)sc2c1	-0.14	·
COc1ccc(/C=C2\Oc3cc(OC(=O)c4ccc(F)cc4)ccc3C2=O)cc1	-0.105	-0.1
N#C/C(=C\c1ccc(C(F)(F)F)cc1)c1cn(C(=O)C2CCC2)c2ccccc12	58.5	1.45
CCS(=O)(=O)c1ccc2oc(NCCc3ccc(F)cc3)nc2c1	·	0.15
O=C(O)c1ccc(C(=O)O)c(F)c1	71.3	0.3
COC(=O)c1sccc1Oc1ccc(C(F)(F)F)cc1[N+](=O)[O-]	-0.255	·
